beta cell repl: inducers of beta-cell replication in MIN6 cells | proliferation, % at 10 µM | MIN6 cells proliferation, ATPlite luminescence, 48 h; cells starved in 0.2% serum; 100% = growth in 10% serum | 0.29% of 330,000 active;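 active means compounds whose signal lies at least 3.5 SD above the mean of all wells on their plate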;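 further: 0% = DMSO-treated cells in low-serum medium and 100% = 10% serum control; some compounds called inactive have numbers as strong as hits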
MPTP inh: blocks calcium-induced mitochondrial swelling; isolated mouse mitochondria, Ca2+ swelling absorbance, 30 min; inhibition, % at 10 µM; 1.4% of 360,000 active; AID 602449;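 active means inhibition of 50% or more, scaled per plate between neutral and stimulator controls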;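 further: 0% = DMSO wells given calcium and 100% = 1 mM EGTA wells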
tim23-1 inh: inhibits growth of tim23-1 mutant yeast; 1.3% of 330,000 active; S. cerevisiae tim23-1 growth, BacTiter-Glo luminescence, 24 h; inhibition, % at 20 µM;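 active means growth inhibition of the mutant yeast at or above 50%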;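 further: temperature-sensitive mutant grown at 25 °C; plate controls were DMSO-treated mutant yeast for no effect and medium wells lacking yeast for full effect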
APJ antag: blocks the human apelin receptor APJ; P35414; inhibition, % at 20 µM; CHO-K1 APJ beta-arrestin complementation, luminescence; AID 2521; 0.32% of 330,000 active;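 active means inhibition above about 40% at 20 µM, limit read from the data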;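 further: cells challenged with 10 nM apelin-13 agonist together with compound; plate controls were apelin-13 plus DMSO wells for no effect and DMSO wells lacking apelin-13 for full effect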
Target sequence (P35414 whole entry, looked up): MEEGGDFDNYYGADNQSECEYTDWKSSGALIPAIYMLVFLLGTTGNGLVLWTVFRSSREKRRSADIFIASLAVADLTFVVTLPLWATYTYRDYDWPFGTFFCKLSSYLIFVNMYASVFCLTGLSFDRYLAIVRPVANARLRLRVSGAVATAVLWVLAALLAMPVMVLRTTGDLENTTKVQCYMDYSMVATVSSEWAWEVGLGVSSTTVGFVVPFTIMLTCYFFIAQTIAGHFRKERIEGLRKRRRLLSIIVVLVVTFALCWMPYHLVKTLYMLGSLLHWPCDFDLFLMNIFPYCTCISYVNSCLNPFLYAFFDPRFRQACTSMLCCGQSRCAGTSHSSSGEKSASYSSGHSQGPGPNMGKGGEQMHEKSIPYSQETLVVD
TIM10 inh: growth inhibitors of TIM10 yeast strain; S. cerevisiae TIM10 strain growth, BacTiter-Glo luminescence, 24 h; inhibition, % at 10 µM; 1.4% of 330,000 active; AID 463195;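 active means inhibition of 40% or more at the single tested concentration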;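 further: wild-type TIM10 isogenic control strain grown at permissive 25 °C; 0% = DMSO yeast wells and 100% = minimal medium wells without yeast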
APJ ag: APJ receptor agonism; activation, % at 20 µM; CHO-K1 APJ PathHunter beta-arrestin, luminescence; 0% DMSO wells, 100% apelin; 0.11% of 330,000 active; AID 2520; P35414;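 active means activation more than six SD over the plate average, tested at 20 µM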;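 further: 0% = DMSO alone and 100% = apelin-13 at 10 nM; some results filed as inactive read as strong as hits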
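Test system: CHO-K1 APJ beta-arrestin complementation cell line | Compound: Single test compound dose, 20 µM final, 1% DMSO | Incubation: Compound 90 min 25 °C, reagent 1 h | Measured by: beta-gal luminescence | Read-out basis: APJ–arrestin association signal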
tim10-1 inh: inhibits growth of tim10-1 mutant yeast | S. cerevisiae tim10-1 ts strain growth, BacTiter-Glo, 24 h | inhibition, % at 20 µM | 2.2% of 330,000 active;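 active means inhibition of at least 40%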;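 further: mutant grown at 25 °C; 0% = DMSO wells with yeast and 100% = wells holding no yeast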
NALP3 yeast inh: NALP3 inhibition in yeast. Yeast reconstituted NLRP3/ASC/caspase-1, beta-gal luminescence, 24 h. inhibition, % at 10 µM. 0.39% of 330,000 active. AID 2825;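 active means inhibition of 50% or more; inactive means inhibition below 50%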;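 further: plate controls were induced DMSO wells for no effect and uninduced yeast grown without galactose for full effect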
* hit, by the source's call; nt = no result given; & = joins results of further samples; ! = repeats disagree. This is a subset, so the mix of outcomes need not match the whole.

SMILES	beta cell repl	MPTP inh	tim23-1 inh	APJ antag	TIM10 inh	APJ ag	tim10-1 inh	NALP3 yeast inh
COc1ccc2c(c1OC)C(=O)O[C@@H]2[C@H]1c2c(cc3c(c2OC)OCO3)CCN1C	5	2.3	20	9	10	-1	16	9
CC1(C)S[C@@H]2[C@H](NC(=O)Cc3ccccc3)C(=O)N2[C@H]1C(=O)O	-5	-0.9&-0.8	6	5	15	12	2	17
CCN(CC)Cc1cc(Nc2ccnc3cc(Cl)ccc23)ccc1O	-8&-8	1.5&3.1	-88&-62	-3&-11	-23&-22	11&6	-51&-53	12&4
CC[C@H](CO)NCCN[C@H](CC)CO	1	-0.2	2	-3	0	-3	15	11
O=c1[nH]c(=O)n([C@H]2C[C@H](O)[C@@H](CO)O2)cc1C(F)(F)F	-3	0.6	6	1	4	-1	3	14
COc1ccccc1OCC(O)CO (stereo unspecified)	-4	0.1	-10	11	-2	0	-15	-2
Cc1[nH]cnc1CN1CCc2c(c3ccccc3n2C)C1=O	5	0.5	-6	-9	5	-2	7	5
O=C(O)CCCCC1SCC2NC(=O)NC21 (stereo unspecified)	4	-1.3	13	8	-3	-3	8	1
Nc1ncnc2c1ncn2[C@@H]1O[C@H](CO)[C@@H](O)[C@@H]1O	-7	-1.8	1	5	2	1	-20	-1
OC(CCN1CCCC1)(c1ccccc1)C1CCCCC1 (stereo unspecified)	-8	13	-7	15	1	-5	14	15
C=CC[N@@+]12CC[C@]34c5ccccc5N5/C=C6\C7N(/C=C(\C53)[C@@H](C[C@@H]41)/C(=C/CO)C2)c1ccccc1[C@@]71CC[N@@+]2(CC=C)C/C(=C\CO)[C@@H]6C[C@@H]12 (stereo partly specified)	-5	0.9	13	-1	13	3	-1	15
CC(C)NCC(O)COc1cccc2[nH]ccc12 (stereo unspecified)	nt	3.4	nt	nt	nt	nt	nt	nt
COc1ccc(OC)c(C(O)CNC(=O)CN)c1 (stereo unspecified)	-2	-1.0	8	-1	0	-3	1	26
CCOC(=O)C1=C(COCCN)NC(C)=C(C(=O)OC)C1c1ccccc1Cl (stereo unspecified)	-8&-8	99*	15&25	-2&-5	15&16	-6&-3	22&29	53*!
CC/C(=C(/CC)c1ccc(O)cc1)c1ccc(O)cc1	-8	1.4	36	-9	20	14	6	32
Cn1cnc([N+](=O)[O-])c1Sc1ncnc2nc[nH]c12	-1	-0.1	-6	-3	1	-1	-6	12
CCC(CO)NCCNC(CC)CO (stereo unspecified)	4	-1.0	11	14	5	0	10	22
NC[C@H](O)c1ccc(O)c(O)c1	-8	-1.4	-5	10	-1	-2	-1	14
CCc1cccc2c3c([nH]c12)C(CC)(CC(=O)O)OCC3 (stereo unspecified)	2	0.1	5	-2	12	8	10	7
Cc1cccc(C)c1NC(=O)CN1CCN(CCCC(c2ccc(F)cc2)c2ccc(F)cc2)CC1	-8	3.8	31	20	24	2	11	22
OC[C@@H](O)[C@@H](O[C@@H]1O[C@H](CO)[C@H](O)[C@H](O)[C@H]1O)[C@H](O)[C@@H](O)CO	4	-1.0	-2	-7	3	-4	-4	4
OC(CCN1CCCCC1)(c1ccccc1)C1C[C@@H]2C=C[C@H]1C2 (stereo partly specified)	-6	2.2	-21	6	16	-4	12	17
O=c1c(O)c(-c2ccc(O)c(O)c2)oc2cc(O)cc(O)c12	-5	4.8	23	-1	-4	8	-16	10
Cc1ccnc(NS(=O)(=O)c2ccc(N)cc2)n1	-1	-1.0	9	8	1	-4	0	-8
O=C(O)Cc1ccc(-c2ccccc2)cc1	0	0.1	24	-7	11	-3	16	14
CCc1c(C)[nH]c2c1C(=O)C(CN1CCOCC1)CC2 (stereo unspecified)	-1	-1.7	-3	9	-7	0	-2	19
CO/N=C(\C(=O)N[C@@H]1C(=O)N2C(C(=O)O)=C(COC(C)=O)CS[C@H]12)c1csc(N)n1 (stereo in doubt)	2&1&0	1.7&0.6&-1.6	-1&-3&-6	8&10&0	4&-4&-6	7&-1&0	-11&3&-7	0&1&4
COCCc1ccc(OCC(O)CNC(C)C)cc1 (stereo unspecified)	-3&-5&3	-2.2&-4.1&-2.6	-2&4&13	25&17&2	-1&0&-1	-3&0&-4	-2&14&5	9&1&29
Clc1ccc2c(c1)C(N1CCNCC1)=Nc1ccccc1O2	-7	2.1	8	9	13	3	-1	29
CCCCc1nc(Cl)c(CO)n1Cc1ccc(-c2ccccc2-c2nn[nH]n2)cc1	-4	-1.4	0	10	2	-5	5	7

One compound at a time, from the list above:
NC[C@H](O)c1ccc(O)c(O)c1 is listed as beta cell repl = -8; MPTP inh = -1.4; tim23-1 inh = -5; APJ antag = 10; TIM10 inh = -1; APJ ag = -2; tim10-1 inh = -1; NALP3 yeast inh = 14
Nc1ncnc2c1ncn2[C@@H]1O[C@H](CO)[C@@H](O)[C@@H]1O is listed as beta cell repl = -7; MPTP inh = -1.8; tim23-1 inh = 1; APJ antag = 5; TIM10 inh = 2; APJ ag = 1; tim10-1 inh = -20; NALP3 yeast inh = -1

Structural class: the entries above containing nitrogen in an aromatic ring.
SMILES	beta cell repl	MPTP inh	tim23-1 inh	APJ antag	TIM10 inh	APJ ag	tim10-1 inh	NALP3 yeast inh
CCN(CC)Cc1cc(Nc2ccnc3cc(Cl)ccc23)ccc1O	-8&-8	1.5&3.1	-88&-62	-3&-11	-23&-22	11&6	-51&-53	12&4
O=c1[nH]c(=O)n([C@H]2C[C@H](O)[C@@H](CO)O2)cc1C(F)(F)F	-3	0.6	6	1	4	-1	3	14
Cc1[nH]cnc1CN1CCc2c(c3ccccc3n2C)C1=O	5	0.5	-6	-9	5	-2	7	5
Nc1ncnc2c1ncn2[C@@H]1O[C@H](CO)[C@@H](O)[C@@H]1O	-7	-1.8	1	5	2	1	-20	-1
CC(C)NCC(O)COc1cccc2[nH]ccc12 (stereo unspecified)	nt	3.4	nt	nt	nt	nt	nt	nt
Cn1cnc([N+](=O)[O-])c1Sc1ncnc2nc[nH]c12	-1	-0.1	-6	-3	1	-1	-6	12
CCc1cccc2c3c([nH]c12)C(CC)(CC(=O)O)OCC3 (stereo unspecified)	2	0.1	5	-2	12	8	10	7
Cc1ccnc(NS(=O)(=O)c2ccc(N)cc2)n1	-1	-1.0	9	8	1	-4	0	-8
CCc1c(C)[nH]c2c1C(=O)C(CN1CCOCC1)CC2 (stereo unspecified)	-1	-1.7	-3	9	-7	0	-2	19
CO/N=C(\C(=O)N[C@@H]1C(=O)N2C(C(=O)O)=C(COC(C)=O)CS[C@H]12)c1csc(N)n1 (stereo in doubt)	2&1&0	1.7&0.6&-1.6	-1&-3&-6	8&10&0	4&-4&-6	7&-1&0	-11&3&-7	0&1&4
CCCCc1nc(Cl)c(CO)n1Cc1ccc(-c2ccccc2-c2nn[nH]n2)cc1	-4	-1.4	0	10	2	-5	5	7

Compound activity as filed in PubChem.
